PrP 5UTR inh – suppresses PrP 5' UTR mRNA reporter expression; cell-based PrP 5' UTR mRNA reporter, plate reader; inhibition, % (no concentration beside the values); hit rate 0.35% among 340,000; AID 488862;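 active = every replicate at 50% or more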;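 also: 0 = median of the neutral control wells; tested in H4 reporter cells; numbers are from one replicate; inactives centre near -14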
RN4220 kill – kills Staphylococcus aureus RN4220; S. aureus RN4220 growth, OD600, 16 h; inhibition, % (no concentration beside the values); hit rate 0.33% among 330,000; AID 1259311;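 active = z-score of -3 or lower and OD600 up to 0.18 on both plates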;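 also: plate controls were untreated cells for no effect and reference antibiotic for full effect; stock transfer was 100 nL into about 80 µL; one replicate is shown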
Mtb hypoxia inh – reduces hypoxia-regulated biosensor signal in M. tuberculosis. hit rate 0.1% among 300,000. fluorescence inhibition, % (concentration not given with the values). AID 1159583. M. tuberculosis hypoxia-regulated fluorescent reporter, fluorescence;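 active = 35 to 45% if threefold the growth effect, above 45% if 1.5-fold the growth effect; inactive = the rest, general growth blockers included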;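 also: wells of about 50 µL received 100 nL stock; 0% = vehicle wells and 100% = reference inhibitor wells; whole bacteria with a GFP reporter of the hypoxia response; strong numbers were not always called active; many hits fall short of the cut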
ugtP null kill – kills S. aureus RN4220 lacking UgtP; S. aureus RN4220 ugtP deletion, OD600 growth, 16 h; some inactives read as strong as hits; growth inhibition, % (concentration not given with the values); hit rate 0.54% among 330,000; AID 1259309;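 active = z-score under -3 and OD600 up to 0.15 on both plates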;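 also: plate controls were untreated wells for no effect and antibiotic for full effect; wells of about 80 µL received 100 nL stock; the first replicate is given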
Bead autofluor – flagged as autofluorescent in microsphere protease counterscreen; compound autofluorescence counterscreen, microsphere flow cytometry; hits give high values; fluorescence intensity (concentration not given with the values); hit rate 3.1% among 360,000; AID 624483;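 active = at least 3 SD above the mean of all compounds, about 16000 in these data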;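 also: 100 nL of 1 mM stock went into each well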
BJeLR lethal – kills HRASV12-expressing BJeLR cells. BJeLR (HRASV12) viability, CellTiter-Glo ATP luminescence, 48 h; reference of the scale not given here. inhibition, % (concentration not given with the values). hit rate 0.17% among 300,000. AID 1554;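 active = replicate mean above 50%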;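 also: 50 nL library stock added to about 25 µL; numbers are from one replicate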
Mtb hypoxia inh growth – recorded beside Mtb hypoxia inh, whose call it bears; growth inhibition, %; measured here: M. tuberculosis growth (absorbance);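 0% = vehicle and 100% = reference antibiotic; read after six days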
* hit, by the source's call; / = not tested or not shown.

SMILES	PrP 5UTR inh	RN4220 kill	Mtb hypoxia inh	Mtb hypoxia inh growth	ugtP null kill	Bead autofluor	BJeLR lethal
O=C1CCCC(=O)N1c1ccc(F)cc1	-18	0.4	5	2	5	3609	-1
COc1ccc(C=NNC(=O)c2cccc(C(F)(F)F)c2)cc1	/	3.0	2	5	1	/	/
COCCN(C(=O)c1csnn1)C(C(=O)NC1CCCC1)c1ccccc1 (stereo unspecified)	-12	2.9	-5	-4	-3	4178	-7
CS(=O)(=O)c1ccc(Cl)c(NC(=O)CSc2nnc(-c3cccs3)n2N)c1	-9	7.1	7	3	8	3432	/
COc1cccc(CNC(=O)c2cc(S(=O)(=O)N3CCCCC3)c[nH]2)c1	-9	1.6	3	5	-4	5980	10
S=C(NCc1ccco1)Nc1ccccc1	-3	8.1	-6	2	4	2134	6
O=C(CCN1C(=O)COc2ccccc21)N1CCN(c2ccccc2)CC1	-18	1.2	3	5	2	4293	5
Cc1nnc(SCC(=O)Nc2cccc(N)c2)n1-c1ccccc1	-3	5.3	6	3	12	3594	2
COc1ccccc1C1CC(c2ccccc2)=NN1S(=O)(=O)c1ccccc1 (stereo unspecified)	-15	0.2	6	-6	11	5350	17
Cn1c(NC(=O)c2ccco2)c(-c2ccc(Cl)cc2)c(=O)c2ccccc21	-13	1.3	-2	-3	-1	11326	4
O=C1NC(=S)N/C1=C/c1ccc(Oc2ccc(C(F)(F)F)cc2[N+](=O)[O-])c(Cl)c1	-12	7.7	1	4	-1	2591	-7
CCc1ccc(OCC(=O)Nc2ccc(N3CCN(S(C)(=O)=O)CC3)cc2)cc1	-16	5.7	14	6	-66	4114	34
COc1ccccc1NC(=O)c1ccc(CN2CCOCC2)cc1	-15	-15	0	2	1	2866	-7
COC(=O)c1ccc([C@@H](O)[C@H](C)C(=O)CC(=O)OC(C)(C)C)cc1	-6	/	/	/	/	2791	-3
ClCCOCCCl	1	4.9	11	5	4	5557	/
CC(C)(C)NC(=O)CN(Cc1ccc2c(c1)OCO2)C(=O)CNS(=O)(=O)c1ccccc1	-65	5.4	7	10	12	5513	19
CC(=NNC(=O)Cn1c(-c2ccccn2)nc2ccccc21)c1ccccc1	/	0.3	-17	10	-7	/	/
O=C(Nc1cc([N+](=O)[O-])ccc1F)C1CCN(S(=O)(=O)c2cccs2)CC1	-4	-1.4	9	3	5	2804	/
COC1=CC=C2[C@H]3Cc4ccc(OC)c5c4[C@@]2(CCN3C)[C@H]1O5	12	-0.9	-9	-2	4	3622	-15
O=C1CN(C(=O)COC(=O)CNC(=O)c2ccccc2)c2ccccc2N1	-33	2.9	5	-2	-3	2462	-4
CC(=O)Nc1ccc(C2(c3ccc(NC(C)=O)cc3)C(=O)Nc3ccccc32)cc1	-8	4.4	5	6	2	4226	4
COc1cccc(CCc2nnc(CCC(=O)NC(C)Cc3cccs3)o2)c1 (stereo unspecified)	-4	1.3	-2	7	4	3976	6
COCCCNC(=O)CCc1c(C)c2cc3c(C)coc3cc2oc1=O	-22	4.7	7	9	17	3748	2
O=C(Nc1ccc(Cl)cc1)NN1CCCCCC1	-40	-0.4	16	14	-8	3799	/
CCOC(=O)c1ccc(NC(=O)Nc2ccc3c(c2)OCCO3)cc1	-17	-3.9	-5	-19	-22	9020	0
c1ccc(-c2nnc(-c3ccncc3)nc2-c2ccccc2)cc1	-24	7.1	0	8	16	3508	4
NS(=O)(=O)c1ccc(Nc2nc3ccccc3nc2NS(=O)(=O)c2cccc([N+](=O)[O-])c2)cc1	40	-0.3	-1	-8	-12	4402	-2
O=C(NCCN1CCN(c2ccccc2)CC1)C1CCN(S(=O)(=O)c2cccc3nsnc23)CC1	1	1.9	18	7	4	4166	1
CN(C)C(=O)Cn1c(=O)n(S(=O)(=O)c2ccccc2)c2ccccc21	-8	3.1	7	-1	9	3662	6
O=C(Nc1cccnc1)OC1CCCC1	-21	4.8	3	-3	6	3544	-4
O=S(=O)(c1ccc(F)cc1)N1CCN(Cc2ccccc2C(F)(F)F)CC1	-27	0.0	8	6	10	6484	-3
CCCC(=O)c1c[nH]c(C(=O)N2CCOCC2)c1	-23	3.9	1	-3	10	4436	-1
CN(C)C(CNS(=O)(=O)c1ccc(F)cc1)c1cccnc1 (stereo unspecified)	-49	-11	-1	-1	-6	4375	-7
C=CCNC(=O)c1onc(CSc2ccc(F)cc2)c1C(=O)NCC=C	-17	4.1	6	2	-3	3001	2
CC(NCc1ccccc1)C1COc2ccccc2O1 (stereo unspecified)	-16	0.8	/	/	3	2710	-4
O=C(Nc1cccc(F)c1)c1c(O)c2ccccc2[nH]c1=O	-64	-0.2	8	-12	8	3955	7
Cc1cccc(-n2c(C)cc(/C=C3\NC(=O)NC3=O)c2C)c1	-21	5.7	-2	2	4	4159	-2
CC(C)CC(C(=O)Nc1oc(-c2ccccc2)c(-c2ccccc2)c1C#N)N1C(=O)c2ccccc2C1=O (stereo unspecified)	-15	1.2	/	/	20	4993	1
Cn1nnc2c(NCc3ccco3)nccc21	-7	-1.5	7	6	-1	4253	-14
Cn1c(=O)oc2cc(S(=O)(=O)N3CCCC(C(=O)NC4CCCc5ccccc54)C3)ccc21 (stereo unspecified)	-17	0.8	6	5	18	6114	14

Some of the entries above, reformatted.
Each structure is followed by: PrP 5UTR inh | RN4220 kill | Mtb hypoxia inh | Mtb hypoxia inh growth | ugtP null kill | Bead autofluor | BJeLR lethal
- O=C1CCCC(=O)N1c1ccc(F)cc1
    -18 | 0.4 | 5 | 2 | 5 | 3609 | -1
- COc1ccc(C=NNC(=O)c2cccc(C(F)(F)F)c2)cc1
    / | 3.0 | 2 | 5 | 1 | / | /
- COCCN(C(=O)c1csnn1)C(C(=O)NC1CCCC1)c1ccccc1 (stereo unspecified)
    -12 | 2.9 | -5 | -4 | -3 | 4178 | -7
- CS(=O)(=O)c1ccc(Cl)c(NC(=O)CSc2nnc(-c3cccs3)n2N)c1
    -9 | 7.1 | 7 | 3 | 8 | 3432 | /
- COc1cccc(CNC(=O)c2cc(S(=O)(=O)N3CCCCC3)c[nH]2)c1
    -9 | 1.6 | 3 | 5 | -4 | 5980 | 10
- S=C(NCc1ccco1)Nc1ccccc1
    -3 | 8.1 | -6 | 2 | 4 | 2134 | 6
- O=C(CCN1C(=O)COc2ccccc21)N1CCN(c2ccccc2)CC1
    -18 | 1.2 | 3 | 5 | 2 | 4293 | 5
- Cc1nnc(SCC(=O)Nc2cccc(N)c2)n1-c1ccccc1
    -3 | 5.3 | 6 | 3 | 12 | 3594 | 2
- COc1ccccc1C1CC(c2ccccc2)=NN1S(=O)(=O)c1ccccc1 (stereo unspecified)
    -15 | 0.2 | 6 | -6 | 11 | 5350 | 17
- Cn1c(NC(=O)c2ccco2)c(-c2ccc(Cl)cc2)c(=O)c2ccccc21
    -13 | 1.3 | -2 | -3 | -1 | 11326 | 4
- O=C1NC(=S)N/C1=C/c1ccc(Oc2ccc(C(F)(F)F)cc2[N+](=O)[O-])c(Cl)c1
    -12 | 7.7 | 1 | 4 | -1 | 2591 | -7
- CCc1ccc(OCC(=O)Nc2ccc(N3CCN(S(C)(=O)=O)CC3)cc2)cc1
    -16 | 5.7 | 14 | 6 | -66 | 4114 | 34
- COc1ccccc1NC(=O)c1ccc(CN2CCOCC2)cc1
    -15 | -15 | 0 | 2 | 1 | 2866 | -7
- COC(=O)c1ccc([C@@H](O)[C@H](C)C(=O)CC(=O)OC(C)(C)C)cc1
    -6 | / | / | / | / | 2791 | -3

Next section
SMILES	PrP 5UTR inh	RN4220 kill	Mtb hypoxia inh	Mtb hypoxia inh growth	ugtP null kill	Bead autofluor	BJeLR lethal
CC1Cc2ccccc2N1C(=O)COC(=O)c1ccc(Br)o1 (stereo unspecified)	-16	6.3	6	11	1	4004	3
CCn1cc(C(=O)N2CC(C)CC(C)C2)c(=O)c2cc(S(=O)(=O)N3CCOCC3)ccc21 (stereo unspecified)	-10	6.9	7	6	6	24578*	-8
CN(C)S(=O)(=O)c1cccc(-c2nnc(SCc3ccc4c(c3)OCCO4)o2)c1	-6	8.5	11	6	7	2545	5
CCc1ccc(NC(=O)CSc2nc3ccccc3c(=O)n2CCCC(=O)NCCCN2CCOCC2)cc1	0	4.1	9	-4	18	4272	2
Cc1cc(=O)oc2c(C(=O)/C=C\c3cccs3)c(O)ccc12	-6	9.9	4	0	-8	2364	-3
CCN(CCO)C1CC(=O)N(c2ccccc2C)C1=O (stereo unspecified)	-20	5.8	4	19	2	9051	6
CC(C)C(NC(=O)CN(c1ccc2c(c1)OCCO2)S(=O)(=O)c1ccccc1)C(C)C	-6	3.5	1	2	7	/	0
CCCCn1nnnc1SCC(=O)c1ccccc1F	-32	4.5	17	23	10	2620	-4
COC(=O)c1ccc(COc2ccc(C=NO)cc2OC)o1	/	11	18	8	0	/	/
O=C(O)c1cccc(NC(=O)c2ccc(COc3ccc(Cl)cc3)cc2)c1	-10	8.5	3	-4	19	/	-3
CCCN(C(=O)c1cnccn1)c1c(N)n(Cc2ccccc2)c(=O)[nH]c1=O	-22	3.0	21	10	4	3574	/
COc1ccc(OCc2cc(C=NNC(=O)c3ccccc3)ccc2OC)cc1	/	-1.6	-3	-1	10	/	/
O=C(CSc1ccccc1)N1CCCC(N2CCN(c3ccccc3)CC2)C1 (stereo unspecified)	-16	1.9	18	10	11	5194	-6
COc1cccc(-c2cc(C(=O)N/N=C/c3cccc(OC)c3OC)c3ccccc3n2)c1	-17	/	/	/	/	4090	-2
CSc1ccc(C=NNC(=O)c2ccccc2Cl)cc1	/	12	13	-7	-76	/	/
CCOc1cc(C2NC(=O)NC(c3ccccc3)=C2C(=O)c2ccccc2)c(Br)cc1OCC(=O)O (stereo unspecified)	-23	-2.2	-11	3	-2	3519	-6
COc1cccc(NC(=O)c2c([N+](=O)[O-])cnn2C)c1	-20	3.1	5	21	6	3838	14
CCOC(=O)N1CCN(C(=O)C2CCCCC2)CC1	-33	-4.4	/	/	1	4265	-4
CC1CCCN(C(=O)C2CCN(CC3CC=CCC3)CC2)C1 (stereo unspecified)	-18	-8.6	11	-4	-2	3581	15
Cc1cccc(Nc2nnc(SCC(=O)c3c(N)n(C4CC4)c(=O)[nH]c3=O)s2)c1C	-17	-2.6	-2	3	-3	4794	/
COc1ccc(-c2csc(NC(=O)c3ccccc3F)n2)cc1	27	-6.9	17	9	15	4446	0
C[n+]1cccc(C(=O)NNC(=O)C23CC4CC(CC(C4)C2)C3)c1	-12	-0.2	4	4	1	3542	7
O=C(CSc1cn(Cc2ccccc2)c2ccccc12)NCc1ccc(F)cc1	-15	-8.9	4	7	-6	6648	3
Cc1cc([N+](=O)[O-])nn1CC(=O)N1CCc2ccccc2C1	-22	-1.5	/	/	4	4732	0
Cc1ccc2sc(N(CCCN(C)C)C(=O)c3ccc(S(=O)(=O)N4CCOCC4)cc3)nc2c1C	-9	2.3	7	0	1	6167	13
O=C(NC1CCCCC1)c1cc(-c2cccs2)on1	-81	1.8	16	7	4	5176	4
CCOc1ccc(N(CC(=O)NCC2CCCO2)S(=O)(=O)c2ccc(SC)cc2)cc1 (stereo unspecified)	/	1.2	8	-4	6	7816	-8
Cc1cc(-c2nn(-c3ccccc3F)cc2CN2CCC(O)CC2)c(C)s1	9	3.4	9	5	-3	3982	7
O=c1c2ccccc2oc2ccc(NCCCN3CCOCC3)cc12	-32	1.1	6	5	-2	3809	2
CC(=O)N=c1cccc(NC(C)=O)n1O	-7	4.6	3	4	-5	9396	-3
COc1cc(/C=C(/NC(=O)c2ccccc2)C(=O)Nc2ccccc2)c([N+](=O)[O-])cc1OC	-35	14	-10	-5	-2	2271	-4
COc1ccc(C(=O)N2CCN(C(C)=O)CC2)cc1S(=O)(=O)N1CCOCC1	-23	1.6	6	15	2	2640	-13
Cc1ccc(N2CC(C(=O)N3CCc4ccccc43)CC2=O)cc1 (stereo unspecified)	-13	0.4	3	9	1	13351	9
CS(=O)(=O)c1ccc(Cl)c(NC(=O)CSc2nc3ccccc3c(=O)n2CCCN2CCOCC2)c1	-18	3.2	8	9	4	2507	1
Cc1cc(SCC(=O)c2ccccc2)n2ncc(-c3ccccc3)c2n1	-88	9.3	-2	4	4	4801	-4

Compounds were not picked by outcome. Share with any hit: about 4.1%.
